# gsp ag – agonists of gsp mutant (McCune-Albright syndrome). Potency, µM (titrated, usually from 76.9 µM), inactives show at the highest dose activation (cAMP increase), hits mostly activators. hit rate 0.13% among 340,000. gsp mutant cells, cAMP HTRF, 30 min; control for the full effect not named in the record; active = well fitted activation curve with a large enough effect; inconclusive = small, poorly fitted or top-dose-only effect, or another doubt; inactive = no such curve, though single readings can be large or run the other way; cell line not stated here;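 also: phosphodiesterase inhibitor Ro 20-1724 added with compounds to block cAMP breakdown; potency is read from the fitted curve at half-maximal effect; nearly all actives have a fitted effect of over 60% in size; about a fifth of the inactives were tested at one dose only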
#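 Cells stably selected in G418 were plated at 2000/well, grown 16-24 hr, then given compounds in DMSO with the PDE inhibitor […] (300 uM solution added) for 30 min at 37C; cAMP was read by HTRF.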
# D2 potentiator – positive allosteric modulators of human D2 dopamine receptor; hit rate 0.23% among 360,000; AID 624464; potentiation, % (no concentration beside the values); DiscoveRx D2 beta-arrestin cells, luminescence, 90 min; 100% = 57 uM dopamine signal; active = potentiation of 50% or more; inconclusive = 30% to 50%; inactive = 30% or less;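 also: compound concentration not given in the record; tested on top of an EC20 dose of dopamine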
#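 PathHunter beta-arrestin assay in DiscoveRx D2 cells. Compounds were added with an EC20 of dopamine (50 nM final) for 90 min at 37 deg C. Luminescence was read 1 h after detection reagent, with 57 uM dopamine as the EC100 control.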
# D2 agonist – activates the human D2 dopamine receptor; DiscoveRx PathHunter D2 beta-arrestin, luminescence, 90 min; 100% = 57 uM dopamine signal; activation, % (concentration not given with the values); P14416; hit rate 0.084% among 360,000; AID 624465; in the data active = activation above about 40%; inconclusive = about 15% to 40%; inactive = below about 15%; also: compound concentration not given in the record; the text of the record calls up to 30% inactive
#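 DiscoveRx PathHunter D2 beta-arrestin cells (2,100/well) attached overnight, then compound-stimulated 90 min at 37 C in HBSS/10 mM HEPES/0.1% Tween-20 buffer; beta-galactosidase complementation read by luminescence after 1 h at ambient temperature. Dopamine 57 uM final (EC100) as control.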
# gsp antagonist – antagonists of gsp mutant (McCune-Albright syndrome); gsp-mutant cells, cAMP HTRF, 30 min; control for the full effect not named in the record; Potency, µM (top dose mostly 76.9 µM), without a hit: at the top dose activity change, negative = inhibition, hits mostly inhibitors; hit rate 0.4% among 340,000; active = falling curve of any shape with a large fitted effect; inconclusive = falling curve, mostly with a smaller effect; inactive = flat or rising curve; cell line not stated here;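 also: intracellular cAMP measured with PDE inhibitor Ro 20-1724 present during compound exposure; potency is read from the fitted curve at half-maximal effect; % is scaled to controls: 0 for no effect and ±100 for the full control effect; nearly all actives have a fitted effect of over 65% in size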
#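 Measurement of cellular cAMP by homogeneous time-resolved fluorescence following a 30 min compound exposure at 37C. The PDE inhibitor […] was present throughout; the assay buffer was DPBS with 0.05% BSA and 0.005% Tween 20.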
# CtBP-E1A inh – blocks the CtBP interaction with E1A; AID 651724; activity change, % (concentration not given with the values); AlphaScreen GST-E1A/His-CtBP binding, 1536-well; active compounds read low; control for the full effect not named in the record; hit rate 0.49% among 340,000; in the data active means activity change below about -65%; inconclusive means about -30% to -65%; inactive means above about -30%; also: % is scaled to controls: 0 for no effect and ±100 for the full control effect
#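 GST-E1A and His-tagged CtBP (125 nM each as 5X stock) were preincubated with pin-transferred compound for 2 h at 37 °C in the dark, then glutathione donor and nickel acceptor beads were added for 1 h before AlphaScreen reading.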
# Six1-Eya2 blk – Six1/Eya2 interaction inhibition; activity change, % (no concentration beside the values); AlphaScreen GST-Six1/His-Eya2 binding, biochemical; active compounds read low; control for the full effect not named in the record; hit rate 0.56% among 360,000; in the data active = activity change below about -65%; inconclusive = about -30% to -65%; inactive = above about -30%; also: % is scaled to controls: 0 for no effect and ±100 for the full control effect
# Target sequence (O00167 whole entry, looked up): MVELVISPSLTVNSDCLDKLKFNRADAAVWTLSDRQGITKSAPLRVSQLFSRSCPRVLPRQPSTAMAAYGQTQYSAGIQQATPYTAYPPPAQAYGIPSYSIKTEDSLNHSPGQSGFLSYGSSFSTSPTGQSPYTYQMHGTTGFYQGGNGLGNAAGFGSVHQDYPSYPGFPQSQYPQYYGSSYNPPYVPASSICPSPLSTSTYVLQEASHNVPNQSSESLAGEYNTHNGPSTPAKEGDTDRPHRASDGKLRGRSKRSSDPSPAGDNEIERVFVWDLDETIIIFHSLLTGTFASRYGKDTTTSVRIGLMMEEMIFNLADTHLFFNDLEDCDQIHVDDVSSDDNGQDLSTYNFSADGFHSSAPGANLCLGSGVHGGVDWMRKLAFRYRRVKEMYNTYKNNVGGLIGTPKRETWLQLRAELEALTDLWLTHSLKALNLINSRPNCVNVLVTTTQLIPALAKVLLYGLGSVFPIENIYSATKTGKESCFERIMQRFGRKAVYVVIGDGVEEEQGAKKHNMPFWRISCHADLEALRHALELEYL
# Target sequence (Q15475 whole entry, looked up): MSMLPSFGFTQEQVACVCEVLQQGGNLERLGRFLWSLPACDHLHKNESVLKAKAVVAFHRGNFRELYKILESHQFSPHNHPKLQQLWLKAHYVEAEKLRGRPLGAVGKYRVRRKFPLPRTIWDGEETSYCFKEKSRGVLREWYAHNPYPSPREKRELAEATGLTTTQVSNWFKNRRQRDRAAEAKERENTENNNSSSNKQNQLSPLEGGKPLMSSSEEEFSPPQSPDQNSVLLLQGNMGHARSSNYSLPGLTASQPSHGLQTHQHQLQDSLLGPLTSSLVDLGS
#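 Compounds are tested against tagged Six1 and Eya2 proteins bridged by glutathione donor and nickel acceptor beads; after a one-hour incubation at 37 °C without light, AlphaScreen emission is recorded.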
# * marks the source's active call; other numbers are inactive results; ? = inconclusive; . = no result given; [ ] = dose if it differs, or a comment. Not a hit list; 1.4% or so of the library scored in one or more.
item	structure	gsp ag	D2 potentiator	D2 agonist	gsp antagonist	CtBP-E1A inh	Six1-Eya2 blk
1	COc1ccc(C(=O)Nc2ccccc2C(=O)N2CCCCC2C)cc1 (stereo not given)	-8%	0	-3.0	2%	0	-7
2	COc1cc(/C=C2/SC(=S)N(c3c(C)n(C)n(-c4ccccc4)c3=O)C2=O)ccc1O	0%	-20	-6.5	?	-19	-19
3	CCN1CCN(C(=S)NC(CC(=O)c2ccccc2)c2ccccc2)CC1 (stereo not given)	2%[15.4 µM]	-15	-3.7	5%	-3	-1
4	Nc1nc2c3ccccc3nc(Cc3ccccc3)n2n1	-39%[inhibitor]	6	2.0	0%	7	-2
5	Cc1nn(-c2ccccc2)c(C)c1/C=N/NC(=O)c1ccccc1NS(=O)(=O)c1cccs1	-3%[15.4 µM]	1	-1.7	-20%	-17	-8
6	Cc1cccc(NS(=O)(=O)c2ccc(C3CCCCC3)cc2)n1	7%	-5	-0.8	-2%	1	-2
7	CCOc1cccc(C(=O)NC2CCCCC2)c1	-50%[inhibitor]	-23	0.0	1%	6	2
8	CN1CCN(C(=O)C2=C[C@@H](c3ccc(C(F)(F)F)cc3)C[C@@H](OCc3ccc(CO)cc3)O2)CC1	0%	-10	-5.1	-2%	4	2
9	CCOc1ccc2c(CC)cc(=O)oc2c1OCC	1%[15.4 µM]	-5	-6.0	-6%	-8	8
10	Cc1ccc(C2C(C#N)=C(N)N(c3cccnc3)C3=C2C(=O)CCC3)s1 (stereo not given)	13%	6	1.4	-17%	0	?
11	O=C(Cc1ccccc1)NCC(=O)OCC(=O)c1cccc([N+](=O)[O-])c1	-29%	-51	-14	-12%	9	5
12	CC(C1SC(=S)NC1=O)C1SC(=S)NC1=O (stereo not given)	-35%[inhibitor]	-10	-4.1	.	-73*	-83*
13	CC(=O)NCCc1nc2ccccc2n1Cc1ccccc1	-2%	-3	-1.4	-8%	-22	4
14	NC(=NCCc1ccccc1)NS(=O)(=O)c1ccc2ccccc2c1	-31%[inhibitor]	-16	-0.5	8%	-1	-4
15	Cc1ccc2cc3c(nc2c1)N(c1ccccc1)CC3	-3%[15.4 µM]	-9	-2.2	-4%	18	19
16	O=C(CN1CCN(S(=O)(=O)c2ccccc2)CC1)Nc1ccc2c(c1)OCO2	3%	-4	0.3	6%	-2	0
17	O=C(Nc1ccccc1)c1ccccc1OCC(O)CN1C(=O)c2ccccc2S1(=O)=O (stereo not given)	-15%	4	1.4	-23%	2	-3
18	COc1ccc(CCNC(=O)CCCn2ncn3c(cc4occc43)c2=O)c(OC)c1	34%	-4	-2.5	-13%	2	-1
19	Cc1ccc(S(=O)(=O)N2CCN(C(=O)CSc3nnc(C)c(=O)[nH]3)CC2)cc1	-5%	-8	-5.5	0%	-5	-2
20	C[C@@H]1CN([C@@H](C)CO)C(=O)CCCn2nncc2CO[C@@H]1CN(C)C(=O)Nc1ccnc(N2CCOCC2)c1	-23%	2	-9.5	.	2	8
21	CC(C)(C)NS(=O)(=O)c1cc2c3c(c1)CCN3C(=O)CC2	-8%	-5	-1.0	4%	.	-1
22	COc1ccc(S(=O)(=O)N2CCCC2=O)cc1N(C)S(C)(=O)=O	?	1	-4.0	14%	9	10
23	CC(CN1CCCC(C(N)=O)C1)c1ccccc1 (stereo not given)	-5%	-10	-3.1	4%	7	7
24	COc1ccc(CN2C(=O)N(c3ccc(OC)cc3)C(=O)C2CC(=O)Nc2ccccc2)cc1 (stereo not given)	-28%	-7	-0.6	1%	-1	2
25	COc1ccc(CN(C)C(=O)c2sccc2-c2ccccc2)c(OC)c1	-2%	-14	-6.2	?	-1	-1
26	CCOCCCNC(=O)c1cc2c(-c3ccc(Cl)cc3)nn(C)c2s1	3%	19	-0.1	-17%	?	?
27	Cc1n[nH]c(C)c1S(=O)(=O)N1CCN(S(=O)(=O)c2cccc(F)c2)CC1	-2%[15.4 µM]	0	5.9	-3%	-5	-2
28	O=C(O)c1cccc(S(=O)(=O)Nc2ccc(S(=O)(=O)N3CCOCC3)cc2)c1	-2%[15.4 µM]	-6	-3.8	4%	-11	-13
29	O=C(CN1C(=O)NC(Cc2c[nH]c3ccccc23)C1=O)Nc1cccc(S(=O)(=O)N2CCCC2)c1 (stereo not given)	5%[15.4 µM]	0	4.2	-7%	-2	-6
30	CNc1c(-n2cc(C(=O)OC)c(C(=O)OC)c2C(=O)OC)c(=O)n(C)c(=O)n1C	-8%[15.4 µM]	-27	0.5	-5%	-8	-5
31	CCc1nc2ccc(C(=O)NCCc3c[nH]c4ccccc34)cn2c1N(C=O)CCC(C)C	.	4	5.3	.	-19	0
32	COc1ccc(C2=NN(C(=O)c3cccs3)C(c3ccc(OC)cc3)C2)cc1 (stereo not given)	-1%	-12	-5.7	-30%	-22	-8
33	Cc1ccc(C(=O)N2CCN(S(=O)(=O)c3ccc(C)c([N+](=O)[O-])c3)C2)cc1	17%[15.4 µM]	-6	2.4	-9%	.	-3
34	OCC[C@H]1C[C@H](O)[C@@H](O)[C@@]2(CCc3ccccc3CO2)O1	.	-2	0.2	5%	9	-11
35	Cc1ccc(C(=O)OCC(=O)NC(C)C2CC3CCC2C3)cc1N (stereo not given)	-2%	-1	3.0	-1%	0	0
36	NNC(=O)COc1ccc(C2SCCS2)cc1	-5%[15.4 µM]	-24	0.6	1%	-9	8
37	O=C(Nc1ccc(S(=O)(=O)N2CCCC2)cc1Cl)C1=COCCO1	3%	-9	1.3	-1%	5	2
38	COCCCNC(=O)COC(=O)c1ccc(-c2nc3ccccc3s2)s1	-86%[inhibitor]	-1	-1.8	-9%	.	-2
39	O=C(NC(=S)N1CCc2ccccc21)c1ccccc1	9%	-19	-8.3	4%	8	0
40	O=C(CSc1ncn[nH]1)Nc1ccc(Br)cc1Br	-4%	-5	2.3	3%	-8	4
41	Cc1ccccc1C(=O)Nc1ccc2c(c1)OCO2	?	-15	-2.8	9%	-2	-23
42	Cc1ccc(O)c(NC(=O)c2ccc3c(c2)C(=O)N(CC(C)C)C3=O)c1	-22%	2	1.9	-8%	7	-1
43	Cc1cccc(Cn2c(N3CCCCC3C)nc3c2c(=O)[nH]c(=O)n3C)c1 (stereo not given)	12%	-5	-3.5	-15%	-3	-8
44	Cc1nc(C)c(-c2csc(NCc3ccco3)n2)s1	?	-23	-0.8	-9%	-24	-14
45	O=C(CCNS(=O)(=O)c1c(Cl)cccc1Cl)N1CCCC1	5%	0	4.0	14%	9	0
46	CCn1c(CNc2nc(-c3ccccc3)cs2)nnc1SCC(=O)NCc1ccccc1	-3%	8	-1.4	-33%	-20	-29
47	COc1cccc(CSc2nnc(-c3ccncc3)n2N)c1	5%[15.4 µM]	-4	-3.2	9%	-4	6
48	CCC1CCCCN1CCCNC(=O)CC1Oc2ccccc2NC1=O (stereo not given)	-6%	-2	-5.3	5%	-21	7
49	COCCCNCC(O)C(F)(F)F (stereo not given)	-6%	-10	0.2	7%	.	-1
50	CC(C)n1c(=O)c2ccccc2n1Cc1cn(CCc2c[nH]c3ccccc23)nn1	.	-2	2.6	.	1	2

# (more compounds)
item	structure	gsp ag	D2 potentiator	D2 agonist	gsp antagonist	CtBP-E1A inh	Six1-Eya2 blk
51	Cc1cc2cc(CN(CCCN3CCOCC3)C(=O)NC3CCCCC3)c(=O)[nH]c2cc1C	4%	-20	-3.5	12%	0	1
52	CCC(=O)Nc1cc(=O)[nH]c2ncnn12	-31%	8	-0.8	3%	-5	9
53	C=CC(=O)N1CCCC(Nc2nc(Nc3ccc(N(C)C(=O)CC)cc3C)nc3nc[nH]c23)C1 (stereo not given)	28%	-4	-4.0	1%	?	-67*
54	Cc1ccc(C2CCN(C(=S)NC(C)C)C2)cc1 (stereo not given)	-11%	-7	-4.7	-7%	10	7
55	CC1=C(C(=O)Nc2ccccc2)C(c2ccco2)NC(=S)N1 (stereo not given)	2%	-4	-1.0	13%	3	4
56	CN(c1nc2c(c(=O)n(C)c(=O)n2C)n1CC(=O)c1ccccc1)C1CCCCC1	-39%[inhibitor]	-6	-0.9	-6%	-6	-15
57	OC(c1ccc(F)cc1)c1ncc(-c2cccc3ccccc23)[nH]1 (stereo not given)	.	-12	-3.2	.	0	-7
58	CSCC[C@H](NC(=O)OCc1ccccc1)C(=O)O	25%	-5	-2.8	9%	2	2
59	CCOC(=O)c1cc(NC(=O)c2cccnc2)ccc1N1CCOCC1	-2%[15.4 µM]	-4	0.3	13%	-5	0
60	C[C@H](CO)N1C[C@H](C)[C@@H](CN(C)C(=O)Nc2ccc(C(F)(F)F)cc2)Oc2ccc(NC(=O)C3CC3)cc2C1=O	.	.	1.9	3%	0	24

# Entries of single compounds, quoted from the list. Order of values: gsp ag | D2 potentiator | D2 agonist | gsp antagonist | CtBP-E1A inh | Six1-Eya2 blk
# C=CC(=O)N1CCCC(Nc2nc(Nc3ccc(N(C)C(=O)CC)cc3C)nc3nc[nH]c23)C1 (stereo not given) is entered as 28% | -4 | -4.0 | 1% | ? | -67*
# CCC(=O)Nc1cc(=O)[nH]c2ncnn12 is entered as -31% | 8 | -0.8 | 3% | -5 | 9
# OC(c1ccc(F)cc1)c1ncc(-c2cccc3ccccc23)[nH]1 (stereo not given) is entered as . | -12 | -3.2 | . | 0 | -7

# (continued)
item	structure	gsp ag	D2 potentiator	D2 agonist	gsp antagonist	CtBP-E1A inh	Six1-Eya2 blk
61	CCc1ccc(NC(=O)Nc2ccon2)cc1	?	-2	7.0	5%	1	6
62	CCn1c(SCC(=O)Nc2ccc(C(C)=O)cc2)nc2nc3c(cc2c1=O)COC(C)(C)C3	-17%	-2	3.5	-12%	.	0
63	CCN(CC)C(=O)C1CCCN(Cc2ccccc2F)C1 (stereo not given)	-19%	0	-3.7	9%	6	2
64	CCc1ccc(/C=C2\SC(=S)N(CCCC(=O)Nc3ccccn3)C2=O)cc1	-50%	-11	-0.5	-4%	-11	?
65	CC1(C)CC(=O)C2=C(C1)OC(N)=C(C#N)[C@@H]2c1ccccc1[N+](=O)[O-]	14%	-1	5.9	2%	-1	-2
66	O=C(c1cc[n+]([O-])cc1)N1CCCC(N2CCN(c3cccc(C(F)(F)F)c3)CC2)C1 (stereo not given)	-9%	-16	-0.3	0%	-9	-4
67	CNc1ncc(C(=O)c2ccc(Cl)cc2)s1	4%	2	-2.5	?	0	5
68	O=C(NC1CCCC1)c1cc(-c2ccc(Cl)cc2Cl)on1	3%[15.4 µM]	-3	0.0	4%	5	6
69	Cc1ccc(C)c(OCCC(=O)OCc2csc(CC(=O)Nc3ccccc3C)n2)c1	-5%	10	3.3	0%	5	5
70	N#Cc1ccccc1OCC(=O)NNC(=O)CCC1CCCC1	11%[15.4 µM]	-29	-3.9	14%	-3	0
71	Cc1nn(Cc2cccc(F)c2)c(C)c1NC(=O)c1ccc(COc2ccccc2Cl)cc1	-2%	-3	6.0	0%	6	-1
72	C(=C\c1ccccc1)/CN1CCN(C(CCc2ccccc2)c2nnnn2C2CCCC2)CC1 (stereo not given)	.	-13	-1.9	.	-21	-25
73	C[C@]12CC[C@H](O)CC1=C[C@H](O)C1C2CC[C@@]2(C)C1CC[C@@]2(O)C#Cc1ccc(CN)cc1 (stereo not given in full)	-2%	-4	2.4	0%	-5	-4

# High-throughput results from PubChem BioAssay.
